# Vaccinia mCherry – qHTS for Stage-Specific Inhibitors of Vaccinia Orthopoxvirus: mCherry Reporter Primary qHTS | Potency, µM (doses to about 36.5 µM), for the others: at the highest dose activity change, negative = inhibition, usual class: inhibitors | Vaccinia virus mCherry reporter infection, fluorescence; about a quarter of the inactives have no number | 310,000 compounds, 0.63% hits | AID 720579, 2013; active = well fitted inhibition curve with a large enough effect; inconclusive = small, poorly fitted or top-dose-only effect; inactive = no such curve, though single readings can be large or run the other way; tested in A549 cells; note: nearly all actives have a fitted effect of over 35% in size; inactives centre near -10
# Vaccinia Venus – qHTS for Stage-Specific Inhibitors of Vaccinia Orthopoxvirus: Venus Reporter Primary qHTS. Potency, µM (series often up to 36.5 µM), for the others: at the top dose activity change, negative = inhibition, hits mostly inhibitors. 330,000 compounds, 0.46% hits. Vaccinia virus Venus reporter expression, fluorescence; active means well fitted inhibition curve with a large enough effect; inconclusive means small, poorly fitted or top-dose-only effect; inactive means no such curve, though single readings can be large or run the other way; tested in A549 cells; note: nearly all actives have a fitted effect of over 30% in size; inactives centre near -10
# * marks the source's active call; other numbers are inactive results; i = inactive; ? = inconclusive; nt = not tested or not shown; & = joins results of further samples; [ ] = another dose, or the depositor's remark. % is set by controls: 0 for no effect and ±100 for the full control effect; potency is the fitted concentration of half-maximal effect. An unsorted share of the library; about 0.87% have a hit in one of these screens.
Compound	Vaccinia mCherry	Vaccinia Venus
O=C(N/N=C\c1cccc(Br)c1)c1ccccc1-n1cccc1	1.7%	-0.7%
O=C(CC(NS(=O)(=O)c1ccc(Cl)cc1)c1ccco1)NC1CCCC1 (stereo unspecified)	nt	-12.7%
O=C1CC23c4ccccc4N4C(=O)CC5OCC=C6CN1C2CC6C5C43 (stereo unspecified)	-3.6%	-9.7%
O=C(Nc1nnc(SCc2ccccc2)s1)c1ccco1	-12.8%	-3.7%
CC(=O)N1CCCN(C(=O)c2ccc3nc(Cc4cccc(Cl)c4)oc3c2)CC1	-12.6%	-6.5%
COc1ccccc1NS(=O)(=O)c1cc(NC(=O)c2ccccc2C)ccc1N1CCOCC1	-17.0%	-15.5%
CCc1cc(CN2CCOCC2)c(NC(=O)c2ccccc2)s1	-6.1%	-5.5%
CCc1nonc1NC(=O)c1oc2ccc(F)cc2c1C	-0.6%	13.9%
CCOC(=O)CC1=NN(c2ccccc2)C(=O)/C1=C\c1ccc(OC)cc1OC	i	3.8%
CS(=O)(=O)N1CCN(C(=O)Cc2ccccc2)CC1	nt	-9.4%
CC(C)CNC(=O)CSc1nnc2ccccn12	i	-12.2%
O=S(=O)(NC1CC2CCC1C2)c1ccc2c(c1)OCCO2 (stereo unspecified)	-24.0%	-8.5%
Cc1cc(Br)ccc1NC(=O)CN(C)C(=O)COc1cccc2c1OC(C)(C)C2	-20.7%	-16.2%
CC(=O)NCCNC(=O)CCCc1nnc2n(CC(C)C)c(=O)c3sccc3n12	-12.3%	-7.4%
Nn1c(Cc2ccc(Br)cc2)n[nH]c1=S	-3.1%	-7.8%
Cc1ccc(NC(=O)CCC(=O)OCCCC(F)(F)C(F)(F)F)cc1	nt	-8.4%
CCCC(=O)N(Cc1cc(=O)[nH]c2ccccc12)c1ccccc1OC	-5.8%	-10.9%
O=C(Cn1cc(S(=O)(=O)Cc2cccc([N+](=O)[O-])c2)c2ccccc21)N1CCOCC1	-2.3%	-5.8%
O=C(COc1cc(F)ccc1[N+](=O)[O-])Nc1ccc(N2CCCCC2)cc1	i	-22.4%
Cc1cc(C)c(S(=O)(=O)Nc2ccc3c(c2)CCC3)c(C)c1	i	-16.3%
O=c1ccc(S(=O)(=O)N2CCCC2)cn1Cc1nc(-c2ccc(F)cc2)no1	-10.9%	-9.3%
O=C(CNS(=O)(=O)c1ccc(Br)s1)N1CCCC1	nt	-18.6%
Cc1ccc(C2Nc3ccccc3NC3=C2C(=O)CC(C)(C)C3)c(O)c1 (stereo unspecified)	?	-22.2%
COc1ccccc1OCCNC(=O)CCC(=O)N1CCOCC1	i	-16.9%
COc1ccccc1CCNC1CCCC(C)C1 (stereo unspecified)	-1.0%	-12.6%
COc1ccc(S(=O)(=O)N2CCCCC2)cc1C(=O)NC1CCS(=O)(=O)C1 (stereo unspecified)	-20.1%	-2.6%&-2.5%
O=C(CC1(CC2=NS(=O)(=O)c3ccccc3N2)CCCC1)NCCc1ccccc1	i	-20.6%
CCC(CO)NCC(O)COCc1ccc2c(c1)OCO2 (stereo unspecified)	-26.2%	-6.5%
O=C1c2ccccc2C(=O)N1C1C(=O)N2CCSC12C(=O)OCc1ccccc1 (stereo unspecified)	-9.4%	-14.3%
N#Cc1cc2ccccc2nc1SCc1cccnc1	-9.7%	-4.7%
O=C(O)c1cc(NC(=O)C2CCCO2)cc(NC(=O)C2CCCO2)c1 (stereo unspecified)	-14.0%	-9.3%
CCOC(=O)Cc1csc(NC(=O)c2c(-c3ccccc3)noc2C)n1	-13.7%	-10.5%
COc1cc(-c2nc3sccn3c2Nc2cccc(C)c2)ccc1O	-3.6%	-2.1%
NS(=O)(=O)c1ccc(CCNC(=O)CNCCc2ccccc2)cc1	i	-2.8%
CC(=O)c1cccc(N(CC(=O)NC2CCCCC2)C(=O)c2csnn2)c1	-20.6%	6.8%
CCN(CC)CCNc1ncnc2c1sc1nc(N3CCOCC3)c3c(c12)CCCC3	-19.2%	-17.1%
COc1ccc(C(=O)N/N=C/c2ccc(SC)cc2)cc1	i	-3.1%
COc1ccc(-c2csc(N(C)C(=O)c3ccco3)n2)cc1	-18.8%	-5.8%
COc1ccc(Nc2nnc(SCC(=O)c3cc(C)n(CC4CCCO4)c3C)s2)cc1 (stereo unspecified)	-26.1%	-11.0%
CCS(=O)(=O)Nc1cc(C(=O)N2CCCN(C=O)CC2)c2c(c1)nc(-c1ccccc1)n2C	i	-14.7%
COc1ccc(-c2cc(C#N)nc(N3CCN(c4ccccc4)CC3)n2)cc1	i	-13.9%
CCCCNC(=O)c1ccccc1C(=O)NC1(C(=O)NCCCC)CCCC1	-14.7%	-9.2%
COc1ccc(NC(=O)Cn2c(=O)c3ccccc3n3nncc23)cc1Cl	-3.2%	-0.1%
C#Cc1ccc([C@H]2C=C(C(=O)N3CCOCC3)O[C@@H](OCC)[C@@H]2CCCO)cc1	i	-13.9%
CCOCCCNC(=O)c1ccc(NC(C)=O)cc1	-8.0%	-3.4%
CCOc1ccc(C(=O)Nc2nnc(NC(=S)Nc3ccccc3)s2)cc1	-12.1%	-12.2%
Cc1cc2ccccc2c(=O)n1CC(=O)Nc1ccc2c(c1)OCCO2	-8.3%	-27.2%
N#CC1=C(N)Oc2c(ccc3ccccc23)C1c1cccs1 (stereo unspecified)	?	?
COC(=O)c1cc(S(=O)(=O)NCC(C)c2ccccc2)c[nH]1 (stereo unspecified)	?	-14.8%
C[C@H](CO)N1C[C@H](C)[C@@H](CN(C)C(=O)Nc2ccc(C(F)(F)F)cc2)Oc2ccc(NC(=O)Nc3ccccc3)cc2C1=O	-4.9%	-26.7%
Cc1ccc2nsnc2c1N(S(C)(=O)=O)S(C)(=O)=O	nt	-28.9%
COCCN(Cc1cc2cc3c(cc2nc1Cl)OCO3)C(=O)c1cccc(C)c1	-1.1%	-0.9%
Cc1ccn2c(=O)nc(SCC(=O)Nc3cccc4ccccc34)nc2c1	-9.2%	1.6%
Cc1cc(C)c2c(n1)NCCC2	-25.0%	-13.4%
Clc1cccc(Cc2c(-c3cccc(Cl)c3)nc3c4ccccc4ccn23)c1	6.8%	5.5%
CC(=O)c1c(C)[nH]c(C(=O)Nc2cccc(S(=O)(=O)N3CCCC3)c2)c1C	-17.5%	-6.4%
CC(C)(C)n1ncc2c(=O)n(CC(=O)Nc3ccc4c(c3)OCCO4)cnc21	nt	-13.0%
CCOC(=O)CSc1nc2ccc(NC(=O)c3ccc(C)cc3)cc2s1	-6.9%	-10.5%
O=C(Nc1cccc(C(F)(F)F)c1)C1CCCN(c2ncccn2)C1 (stereo unspecified)	-12.8%	-4.3%
COc1ccc(C(=O)Nc2ccccc2[N+](=O)[O-])cc1S(=O)(=O)N1CCOCC1	-7.1%	-23.6%

# Continuation.
Compound	Vaccinia mCherry	Vaccinia Venus
Cc1ccc(/C=C2\SC(=S)N(CCC(=O)NNS(=O)(=O)c3ccccc3)C2=O)cc1	2.8%	-5.2%
NC(=O)c1nsc(C(=O)N(Cc2cccnc2)C(C(=O)NCc2ccc(F)cc2)c2ccc(O)cc2)c1N (stereo unspecified)	4.3%	-8.4%
Cc1cnnc2ccccc12	i	-5.4%
O=C(NNC(=O)C1CC1)c1cccc([N+](=O)[O-])c1	i	-2.3%
O=C(NN1C(=O)C2C(C1=O)C1C=CC2C12CC2)c1ccccc1Cl (stereo unspecified)	i	-8.7%
COc1ccc(C(=O)CSc2nnc(CN3CCCCC3)n2-c2ccc(F)cc2)cc1OC	-16.5%	-16.5%
COc1cc(C(=O)OCCCN2CCOCC2)ccc1O	-1.0%	2.6%
Nc1ccc(Cl)cc1C(=O)c1ccccc1Cl	-9.4%	?
CCN(CCCn1c(=S)[nH]c2ccc(N3CCOCC3)cc2c1=O)c1ccccc1	-25.3%	-25.8%
O=C(COc1ccc(Cl)cc1)Nc1cc2c3c(c1)CC(=O)N3CCC2	-12.1%	-15.1%
CC(C)c1ccc(NC(=O)CSC2=Nc3ccccc3C3=NC(CCC(=O)NCc4ccco4)C(=O)N23)cc1 (stereo unspecified)	-11.3%	-9.8%
COC(=O)c1nn(-c2ccccc2)c(Cl)c1/C=N/OCc1ccc(C)cc1	nt	-10.2%
Cc1cc([N+](=O)[O-])ccc1NC(=O)c1cc2ccccc2o1	-13.1%	-18.5%
Cc1oc(-c2cccc(Br)c2)[n+]([O-])c1C	-5.6%	-4.4%
CC[C@]1(C(=O)OC)[C@H]2C(=O)N(Cc3ccccc3)C(=O)[C@H]2[C@H]2CN=C(SCc3ccc(C#N)cc3)N21	-1.2%	-22.5%
CC(C)CN(CC(C)C)C(=O)CN1c2cccc3cccc(c23)S1(=O)=O	i	-15.9%
O=S(=O)(CCCc1ccccc1)c1ncn[nH]1	nt	-10.5%
CN(C(=O)C12CC3CC(CC(C3)C1)C2)C1CCS(=O)(=O)C1 (stereo unspecified)	-19.4%[1.46 µM]	?
COc1ccc2cc(CN(CC3COCCO3)S(=O)(=O)c3ccccc3)c(=O)[nH]c2c1 (stereo unspecified)	i	0.0%
CCSc1nc(O)c(C(c2cccc(OC)c2)c2c(O)nc(SCC)[nH]c2=O)c(=O)[nH]1	-16.0%	-19.1%
CC(C)(C)c1ccc(C(=O)N/N=C2\C3CN4CCN(C3)CC2(c2ccccc2)C4)cc1	-24.0%	-18.9%
CC(=O)N1CCOc2ccc(S(=O)(=O)NCCc3cccc(C)c3)cc21	-4.9%[7.34 µM]	5.4%[7.34 µM]
COc1ccc(OC)c(S(=O)(=O)N2CCCC(C(=O)NCc3cccnc3)C2)c1 (stereo unspecified)	2.3%	2.9%
COc1ccc(N(C)S(=O)(=O)c2cccc(C(=O)OCC(=O)NCc3ccccc3OC)c2)cc1	?	-18.0%
CCOC(=O)N1CCN(CC(=O)Nc2cc(OC)c(OC)cc2C#N)CC1	-7.3%	-4.9%
O=C(CN1CCN(CC(=O)Nc2ccccc2F)CC1)Nc1ccc(Cl)c(C(F)(F)F)c1	-13.0%	-4.5%
CCOc1cc(C(=O)NCc2ccc(C)cc2)ccc1OCC(=O)N1CCOCC1	-2.2%	-4.8%
O=C1CN(c2ccc(Cl)cc2)C(=O)CN1NC(=S)Nc1ccc(Cl)cc1	nt	-9.9%
CC(C)(C)OC1NS(=O)(=O)OCC1NCOC(Cl)(Cl)Cl (stereo unspecified)	i	-8.1%
CC(C)(C)c1ccc(NC(=O)c2cc(C3CCCN(C(=O)CCc4ccccc4)C3)on2)cc1 (stereo unspecified)	?	-21.2%
N#Cc1cc2c(nc1SCC1COc3ccccc3O1)CCC2 (stereo unspecified)	-12.4%[1.46 µM]	-22.7%
COc1ccc(CN(C(=S)Nc2ccccc2)C2CC(=O)N(c3ccc(Cl)cc3)C2=O)cc1 (stereo unspecified)	nt	?

# Structural class: the entries above with an aryl thioether with sulfur outside any ring
Compound	Vaccinia mCherry	Vaccinia Venus
O=C(Nc1nnc(SCc2ccccc2)s1)c1ccco1	-12.8%	-3.7%
CC(C)CNC(=O)CSc1nnc2ccccn12	i	-12.2%
N#Cc1cc2ccccc2nc1SCc1cccnc1	-9.7%	-4.7%
COc1ccc(C(=O)N/N=C/c2ccc(SC)cc2)cc1	i	-3.1%
COc1ccc(Nc2nnc(SCC(=O)c3cc(C)n(CC4CCCO4)c3C)s2)cc1 (stereo unspecified)	-26.1%	-11.0%
Cc1ccn2c(=O)nc(SCC(=O)Nc3cccc4ccccc34)nc2c1	-9.2%	1.6%
CCOC(=O)CSc1nc2ccc(NC(=O)c3ccc(C)cc3)cc2s1	-6.9%	-10.5%
COc1ccc(C(=O)CSc2nnc(CN3CCCCC3)n2-c2ccc(F)cc2)cc1OC	-16.5%	-16.5%
CCSc1nc(O)c(C(c2cccc(OC)c2)c2c(O)nc(SCC)[nH]c2=O)c(=O)[nH]1	-16.0%	-19.1%
N#Cc1cc2c(nc1SCC1COc3ccccc3O1)CCC2 (stereo unspecified)	-12.4%[1.46 µM]	-22.7%

# Single records (already shown).
# CC(C)(C)OC1NS(=O)(=O)OCC1NCOC(Cl)(Cl)Cl (stereo unspecified) across the screens: Vaccinia mCherry = i; Vaccinia Venus = -8.1%
# COc1ccc(OC)c(S(=O)(=O)N2CCCC(C(=O)NCc3cccnc3)C2)c1 (stereo unspecified) across the screens: Vaccinia mCherry = 2.3%; Vaccinia Venus = 2.9%
